Mtb hypoxia rep: Mtb hypoxia fluorescent reporter inhibition | M. tuberculosis hypoxia-regulated fluorescent reporter, fluorescence | fluorescence inhibition, % (concentration not given with the values) | 300,000 tested, 0.1% active;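 active = 35 to 45% if threefold the growth effect, above 45% if 1.5-fold the growth effect; inactive = the rest, general growth blockers included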;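 note: wells of about 50 µL received 100 nL stock; 0% = vehicle wells and 100% = reference inhibitor wells; whole bacteria with a GFP reporter of the hypoxia response; strong numbers were not always called active; many hits fall short of the cut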
PrP 5UTR inh: inhibition of PrP 5' UTR reporter expression. cell-based PrP 5' UTR mRNA reporter, plate reader. 340,000 tested, 0.35% active. inhibition, % (concentration not given with the values);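 active = every replicate at 50% or more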;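 note: 0 = median of the neutral control wells; tested in H4 reporter cells; numbers are from one replicate; inactives centre near -14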
RN4220 kill: S. aureus RN4220 growth inhibition; 330,000 tested, 0.33% active; OD600, 16 h; AID 1259311; inhibition, % (concentration not given with the values);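 active = z-score of -3 or lower and OD600 up to 0.18 on both plates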;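 note: plate controls were untreated cells for no effect and reference antibiotic for full effect; stock transfer was 100 nL into about 80 µL; one replicate is shown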
Sa ugtP lethal: growth inhibition of S. aureus ugtP deletion strain. S. aureus RN4220 ugtP deletion, OD600 growth, 16 h; some inactives read as strong as hits. growth inhibition, % (concentration not given with the values). 330,000 tested, 0.54% active;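 active = z-score under -3 and OD600 up to 0.15 on both plates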;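 note: plate controls were untreated wells for no effect and antibiotic for full effect; wells of about 80 µL received 100 nL stock; the first replicate is given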
BJeLR lethal: kills HRASV12-expressing BJeLR cells; inhibition, % (no concentration beside the values); 300,000 tested, 0.17% active; BJeLR (HRASV12) viability, CellTiter-Glo ATP luminescence, 48 h; reference of the scale not given here;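 active = replicate mean above 50%; inconclusive = above 50% but judged a plate artefact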;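 note: 50 nL library stock added to about 25 µL; numbers are from one replicate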
Autofluor counter: compound fluorescence in toxin protease inhibitor counterscreen | compound autofluorescence counterscreen, microsphere flow cytometry; stronger effect = higher value | fluorescence intensity (no concentration beside the values) | 360,000 tested, 3.1% active;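 active = at least 3 SD above the mean of all compounds, about 16000 in these data; inconclusive = too few beads counted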;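 note: 100 nL of 1 mM stock went into each well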
Mtb hypoxia rep growth: second read-out of Mtb hypoxia rep, no call of its own (marks repeat the call); growth inhibition, %; measured here: M. tuberculosis growth (absorbance);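 0% = vehicle and 100% = reference antibiotic; read after six days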
An asterisk follows results filed as active; ? = inconclusive; . = not tested or not shown; & = joins results of further samples.

Sequence of screens: Mtb hypoxia rep	Mtb hypoxia rep growth	PrP 5UTR inh	RN4220 kill	Sa ugtP lethal	BJeLR lethal	Autofluor counter
> O=C(O)Cc1ccc2sc(-c3ccccc3)nc2c1
 : -1	6	-19	16	1	28	8244
> CCc1nnc(NS(=O)(=O)c2ccc(NC(=O)CCC(=O)OC)cc2)s1
 : 16	7	-52	6.1	10	-14	3813
> Cc1cc(C(=O)Nc2nnc(C3CCCCC3)s2)cs1
 : 3	6	-179	1.9	3	-2	23418*
> Oc1cc2c(cc1CN1CCc3ccccc3C1)OCO2
 : 5	-7	-17	2.0	7	-1	4149
> Nc1nnc(-c2cn(-c3ccccc3)nc2-c2ccc(Cl)cc2)o1
 : 1	10	-9	2.0	-6	-6	6120
> O=C(Cc1cccc(C(F)(F)F)c1)NCC(=O)Nc1cc(Cl)ccc1Cl
 : -11	-3	-22	-1.8	-3	0	5710
> COc1ccc(Cc2noc(CN3CCCC(OCc4ccccn4)C3)n2)cc1OC (stereo unspecified)
 : -10	6	-22	4.0	7	5	3337
> CCN(CC)S(=O)(=O)c1ccc2c(c1)N(CC(=O)Nc1cccnc1Cl)C(=O)CO2
 : -5	9	-13	1.6	9	-3	4143
> Cc1cc(SC#N)cc(C)c1NC(=O)CCl
 : 13	14	-25	16	5	-9	2134
> Clc1ccc(-n2ncc3c(NCC4CCCO4)ncnc32)cc1 (stereo unspecified)
 : 11	16	-40	4.6	8	-5	4202
> Fc1ccc(C(CCNCc2cccs2)c2ccco2)cc1 (stereo unspecified)
 : 2	3	-22	2.4	3	5	3355
> Cn1c(=O)c2c(SCC(=O)Nc3ccc4c(c3)OCCO4)nc(CC(C)(C)C)nc2n(C)c1=O
 : 3	11	-7	-6.4	-8	-2	5539
> Fc1cc(Br)ccc1NC(=S)Nc1cccnc1
 : 2	16	-13	-6.8	-3	-1	3829
> Cc1cc(Br)ccc1NC(=O)CN1C(=O)CCC1=O
 : -5	-7	-15	-2.9	-5	-1	15722
> CC(=O)N/C(=C\c1ccccc1Cl)C(=O)O
 : .	.	1	-0.6	12	-2	6109
> Cc1cc(C(C)(C)C)cc(C)c1COC(=O)CN1C(=O)NC2(CCCC2)C1=O
 : 13	6	.	3.4	1	.	.
> C[C@H](NC(=O)[C@H]1N2C(=O)c3ccccc3C2SC1(C)C)C(=O)N1CCN(C)CC1 (stereo partly specified)
 : -1	-2	16	2.1	1	8	5781
> Cc1nn(-c2ccc(N3CCCCC3)nn2)c(C)c1CCC(=O)Nc1ccc(F)c(F)c1
 : 5	-1	-81	-4.8	3	3	4642
> CCOC(=O)c1cc2sc(C)cc2n1CC(=O)N(CC)CC
 : 1	3	-18	0.2	2	-4	3769
> Cc1ccc(CCNC(=O)CN(C)S(=O)(=O)c2cnc[nH]2)cc1
 : 0	-12	-17	-0.1	2	-15	2225
> COc1cc(C(=S)NC2CCCCC2)ccc1O
 : 5	-3	-5	4.9	7	14	2646
> Cc1onc(-c2c(Cl)cccc2Cl)c1C(=O)NCCN1CCOCC1
 : 4	5	-2	-2.0	0	-19	10476
> Cc1nc2sc(C)c(C)c2c(=O)o1
 : .	.	-17	0.6	1	11	4306
> CC(=O)c1cc2c(cc1NC(=O)CCC1CCCC1)OCO2
 : 6	3	.	3.3	3	0	.
> COc1cccc2cc(-c3nnc(SCC(=O)NCc4ccccc4)n3C)oc12
 : 12	9	-11	-0.6	5	2	22828*
> O=C1c2[nH]nc(-c3ccccc3O)c2C(c2cccc(O)c2)N1Cc1ccco1 (stereo unspecified)
 : 3	3	-12	9.0	6	-7	3118
> CC(C)c1ccc(Nc2nc(Cl)nc(NCCO)n2)cc1
 : 1	4	-16	1.1	22	-2	3827
> O=C(Cn1cnc2cc([N+](=O)[O-])ccc2c1=O)N(Cc1ccccc1)C1CCS(=O)(=O)C1 (stereo unspecified)
 : -9	8	-13	9.8	-1	9	3986
> Cc1nn(-c2cccc(C(F)(F)F)c2)c(=O)c2noc(C)c12
 : 3	8	-27	6.2	2	-7	4960
> C#CCOCCOCCOCCNc1nc(N2CCN(C(=O)C(CCC(=O)O)n3cc(C(N)Cc4ccc(O)cc4)nn3)CC2)nc(N2CCN(C(=O)C(Cc3ccc(O)cc3)n3cc(C(N)CC(C)C)nn3)CC2)n1 (stereo unspecified)
 : 1	9	.	6.2	5	.	.
> CC(C)CCn1c(N2CCCC2)nc2c1c(=O)[nH]c(=O)n2C
 : 3	-3	-17	-4.2	-4	-11	3918
> CC1(C)Cc2c(C#N)c(N3CCOCC3)nc(Cc3ccccc3)c2CO1
 : .	.	-15	-5.8	18	9	2654
> CC(=NNC(=O)c1ccc(NS(=O)(=O)c2cccs2)cc1)c1ccc(C(C)(C)C)cc1
 : -7	5	.	15	1	.	.
> O=C(NNS(=O)(=O)c1ccc(F)cc1)C1CC(c2cccnc2)=NO1 (stereo unspecified)
 : 2	9	-23	1.4	3	-6	4001
> COc1ccc(CCN(C)CCC(=O)Nc2ccc(C)cc2)cc1OC
 : 13	9	-8	1.6	2	-2	2438
> COc1cccc(NC(=O)c2ccccc2-c2nc(-c3cccc(C)c3)no2)c1
 : 2	12	-20	-10	5	.	4514
> COc1cc(/C=C2/C(=O)NN(c3cccc(Cl)c3)C2=O)cc(Br)c1O
 : .	.	10	.	.	-8	4297
> COc1cccc(NC(=O)N2CCc3ccccc3C2)c1
 : 7	-1	-58	2.3	-1	3	5480
> O=c1cc(CSc2ccc([N+](=O)[O-])cc2)nc2sccn12
 : 9	0	-25	6.0	0	10	4499
> CN(CC1CCCO1)S(=O)(=O)c1ccc(C(=O)NCc2ccccc2)cc1 (stereo unspecified)
 : 6	-3	-26	4.2	5	-1	2442
> O=C(CCN=C1NS(=O)(=O)c2ccccc21)NCc1ccccc1F
 : 18	7	-32	3.7	-1	.	4632
> Cc1ccc(NC(=O)C(C)N2CCOCC2)c(C(=O)c2ccccc2)c1 (stereo unspecified)
 : -3	-2	-9	2.5	-1	-4	2999
> COc1ccccc1COC(=O)C(NC(=O)c1ccc(C)cc1)C(C)C (stereo unspecified)
 : 7	5	-39	0.1	5	.	.
> COCCCNC(=S)N1CCCN(c2nc3c(C)c(C)ccc3cc2C#N)CC1
 : 11	10	-19	4.3	-16	-4	4792
> Cc1cc(NC(=O)CN2CCCCC2C)nc2c1c(=O)oc1ccccc12 (stereo unspecified)
 : 5	-1	.	3.8	4	2	.
> O=C(CSc1nnc(Cc2ccccc2)n1Cc1ccco1)NC1CCCC1
 : 12	0	-10	4.3	0	4	11034
> COc1ccc(S(=O)(=O)N2CCCC2CNC(=O)C(=O)NCCc2ccccc2)cc1 (stereo unspecified)
 : 5	4	-33	0.0	7	30	6967
> Cc1noc(C)c1COc1ccc(C(=O)OCC(=O)Nc2ccc(C(=O)N(C)C)cc2)cc1
 : 1	-8	-12	1.4	13	-15	4349
> COC(=O)c1sccc1-c1ccc(/C=N/OC(=O)c2cccs2)o1
 : .	.	-28	.	.	4	3295
> CC(C)Sc1nc2c(c(=O)[nH]c(=O)n2C)n1CCc1ccccc1
 : .	.	4	6.9	9	-6	3527
> O=C(Nc1ccccc1)N(CCc1ccncc1)C1CCCCC1
 : 10	1	-81	0.2	7	-1	6145
> CN(C)S(=O)(=O)c1cccc(NC(=O)COC(=O)c2ccc3ccccc3n2)c1
 : 3	4	-8	2.8	1	.	?
> COc1ccc(OCC(=O)NNC(=O)Cn2c(=O)cnc3ccccc32)cc1
 : 0	0	3	1.8	3	.	?
> CC#CCN1c2ccccc2[C@]23C[C@@H](C(=O)OC)N(C(C)=O)C2=NC(C(=O)OC)=C(C(=O)OC)[C@H]13
 : .	.	-8	.	.	-7	3905
> CCOc1ccc(S(=O)(=O)N2CCOCC2)cc1NC(=O)CSCc1ccc(C)cc1
 : 7	3	-40	5.6	-2	.	6992
> CCOc1ccc(N(CC(=O)NC(C)C)C(=O)CCC(=O)Nc2ccccn2)cc1
 : 11	17	-4	0.3	-1	5	3411
> C=C(C)COc1ccc2c(C)c(CC(=O)N3C[C@H]4C[C@@H](C3)c3cccc(=O)n3C4)c(=O)oc2c1
 : .	.	-29	1.8	11	3	4035
> Cc1ccc(N=C(NO)c2nonc2N)c(C)c1
 : 6	5	5	3.2	2	2	2627
> CC1CCN(C(=O)c2nc[nH]c2C(=O)OC(C)c2ccccc2)CC1 (stereo unspecified)
 : 20	11	.	4.9	3	.	.
> O=C(CN(Cc1ccccc1)C(=O)CCC(=O)Nc1nccs1)NCc1ccco1
 : .	.	2	1.6	-2	0	4792

Later entries.
Sequence of screens: Mtb hypoxia rep	Mtb hypoxia rep growth	PrP 5UTR inh	RN4220 kill	Sa ugtP lethal	BJeLR lethal	Autofluor counter
> O=C(C1CC1)N1CCC(C(O)(c2ccccc2)c2ccccc2)CC1
 : 2	5	-20	-0.6	5	-1	21864*
> OC(COCc1ccccc1)CN1CCN(Cc2ccc3c(c2)OCO3)CC1 (stereo unspecified)
 : .	.	-37&-21	.	.	-1	2623
> Cc1ccsc1/C=N/NC(=O)CN1CCN(Cc2ccccc2)CC1
 : .	.	-27	.	.	3	4271
> COc1cccc(/C=N/N2CCN(c3ccncc3S(=O)(=O)N3CCCCC3)CC2)c1
 : .	.	-13	.	.	4	2608
> COC(=O)c1scc(S(=O)(=O)c2ccccc2)c1N
 : 3	-5	-14	7.8	4	3	4097
> Cn1c(=NC(=O)CSCC(=O)N2CCCC2)sc2ccccc21
 : .	.	-18	-2.1	4	2	2023
> Cc1ccc(OCCN(C)C(=O)C2CCC(=O)N(CCCN3CCCC3=O)C2)cc1 (stereo unspecified)
 : 1	0	-27	1.6	3	0	5754
> CC1=CC2=NC(=O)CC(C)(C(=O)N(CC(=O)NC3CCCC3)Cc3ccc(Cl)cc3)N2C=C1 (stereo unspecified)
 : 7	3	-16	3.0	13	-14	4980
> COc1cccc(C2N(c3ccccn3)C(=O)C3CCCN32)c1OC (stereo unspecified)
 : 7	3	-31	5.9	1	-3	9972
> CCCc1c(C(=O)Nc2ccc(C(F)(F)F)cc2)cnn1-c1ccccc1
 : 0	1	65*	-8.1	-16	-10	.
> COc1ccc(N(Cc2cc3ccc(C)cc3[nH]c2=O)S(=O)(=O)c2ccccc2)cc1
 : -6	1	2	2.3	6	8	4314
> O=C1C=C(NCc2ccccc2)c2ccccc2C1=O
 : 12	4	-36	92*	92*	1	4000
> O=C(Nc1ccc(F)cc1)c1cccnc1N1CCOCC1
 : 6	-2	-3	0.0	2	-2	3549
> Cc1nn(CCC#N)c(NC(=O)c2ccc(Cl)cc2Cl)c1P(=O)(Nc1ccc([N+](=O)[O-])cc1)N1CCOCC1 (stereo unspecified)
 : 3	5	-9	1.8	11	-14	16178*
